Rango dissoc inh: inhibition of RanGTP-driven Rango-importin beta dissociation | Potency, µM (titrated, usually from 46.1 µM), without a hit: at the highest dose activity change, negative = inhibition | Biochemical FRET Rango-importin beta, RanGTP-induced dissociation | O95149+P62826 | 340,000 tested, 0.071% active; active means falling FRET ratio curve, often poorly fitted, with flat reads before Ran was added; inconclusive means other falling curves, or compound fluorescence or quenching; inactive means flat or rising ratio curve;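 further: potency means the concentration at half of the fitted maximal effect; % of control where 0% means no effect; nearly all actives have a fitted effect of over 45% in size; -100% = wells without RanGTP and RCC1; the record marks most hits as doubtful in a second field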
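Compounds preincubate 5 min with complex of recombinant Rango and importin beta in PBS with 1 mM DTT. Ran (0.6 uM) loaded with 2 mM GTP plus 0.2 uM RCC1 starts dissociation; FRET is recorded 45 min later.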
Rango complex inh: prevents formation of the Rango-importin beta complex; Q14974; Rango CFP/YFP FRET sensor + importin beta, 45 min; Potency, µM (top dose mostly 92.2 µM), inactives show top-dose inhibition of complex formation; 340,000 tested, 0.031% active; active = rising FRET ratio curve, often small or poorly fitted; inconclusive = mostly compound fluorescence or quenching in the first reads; inactive = flat curves in all reads;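 further: potency means the concentration at half of the fitted maximal effect; 0% = DMSO wells and 100% = buffer wells lacking importin beta; nearly all actives have a fitted effect of over 15% in size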
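Inhibition scored from the CFP 486 nm/YFP 530 nm FRET ratio 45 min after adding 0.125 microM importin beta to 50 nM Rango biosensor preincubated 5 min with compound (room temperature, PBS with DTT, Tween-20, BSA). No-importin wells as positive control.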
GLA inh pH 4.5: alpha-galactosidase A (human) inhibition, pH 4.5; P06280; purified enzyme, 4-MU-alpha-Gal fluorescence, pH 4.5; activity change, negative = inhibition, % at 105 µM; 230,000 tested, under 10 active; inconclusive = small, poorly fitted or top-dose-only inhibition, or a rising curve; inactive = flat fitted curve, though single readings scatter; no compound was filed as active;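 further: 0% = full activity with enzyme and -100% = basal without enzyme; dose as in the result columns while the protocol names 77 µM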
Target sequence (P06280 whole entry, looked up): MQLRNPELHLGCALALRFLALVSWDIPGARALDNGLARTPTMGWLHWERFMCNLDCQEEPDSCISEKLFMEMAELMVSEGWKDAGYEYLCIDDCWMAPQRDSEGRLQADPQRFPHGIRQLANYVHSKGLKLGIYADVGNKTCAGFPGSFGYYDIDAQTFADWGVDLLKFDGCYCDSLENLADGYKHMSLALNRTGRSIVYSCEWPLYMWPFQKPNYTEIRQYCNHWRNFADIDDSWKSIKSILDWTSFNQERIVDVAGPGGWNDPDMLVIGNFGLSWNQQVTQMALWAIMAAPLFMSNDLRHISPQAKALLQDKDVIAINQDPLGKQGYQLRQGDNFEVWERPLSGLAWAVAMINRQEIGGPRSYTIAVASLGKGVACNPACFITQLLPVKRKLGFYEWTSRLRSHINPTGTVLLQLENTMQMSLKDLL
miR-21 FLuc: raises the signal of a miR-21 reporter | HeLa miR-21 FLuc reporter, luciferase, 48 h | Potency, µM (highest dose often 38.3 µM), without a hit: at the highest dose reporter change, positive = more light | 340,000 tested, under 10 active | AID 2288; active = well fitted rising curve with a large enough effect; inconclusive = small, poorly fitted or top-dose-only effect; inactive = no such curve, though single readings can be large or run the other way;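 further: % of control where 0% means no effect; miR-21 action dims this reporter so a rising signal means less miR-21 action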
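Luminescence from a firefly luciferase reporter carrying a miR-21 binding site downstream, stably expressed under a CMV promoter in HeLa cells that make miR-21 endogenously, reports miRNA modulation after 48 h compound exposure up to approximately 40uM final.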
Numbers without * were called inactive; ? = inconclusive; / = not tested or not shown. These rows are one share of the data; count on the stated rates, not on these rows.

SMILES | Rango dissoc inh | Rango complex inh | GLA inh pH 4.5 | miR-21 FLuc
CN1CCN(S(=O)(=O)c2ccc(N(C)Cc3ccc(C(F)(F)F)cc3)c([N+](=O)[O-])c2)CC1 | 21% | -0.8% | / | /
OCCN(CC#CC(O)(c1ccccc1)c1ccccc1)CCO | 0% | -2.9% | 1 | 1%
C[C@@]12CCC=C[C@H]1[C@H](c1ccc(C(F)(F)F)cc1)N(Cc1ccccc1)C2=O | -9% | 0.4% | -3 | 12%
CC1CCCCN1S(=O)(=O)c1ccc(C(=O)N(CCCN(C)C)c2nc3ccc(Br)cc3s2)cc1 (centres undefined) | 0% | 0.5% | / | 6%
CCCn1c2ccccc2c2cnn(CC(=O)NCCOC)c(=O)c21 | 6% | -0.6% | / | -3%
O=C(Nc1ccccn1)c1onc2c1CCCC2 | 27% | 1.8% | 4 | 14%
COC(=O)c1cc2ccccc2oc1=O | 0% | -4.5% | -14 | -9%
CCn1c2ccccc2c2cc(CN3CCN(Cc4cc(OC)ccc4O)CC3)ccc21 | 1% | 1.5% | -9 | -2%
CC(=O)c1cccc(NC(=O)C2(c3ccccc3)CC2(Cl)Cl)c1 (centres undefined) | -14% | -0.1% | 1 | 5%
Cc1ccc(N(CC(=O)NC2CCCC2)C(=O)c2ccc(C)s2)cc1 | 0% | -1.4% | 2 | 4%
CC(=O)c1cccc(NC(=O)Nc2csc3c2CCCC3)c1 | 6% | -1.5% | -12 | 5%
Cc1cc2c(SCC(=O)NC3CCCC3)ncnc2s1 | 9% | 3.6% | / | -3%
COC(=O)Cc1ccc(NC(=S)N2CCN(C)CC2)cc1 | -8% | 0.3% | 6 | 2%
COCCCNC(=O)c1ccccc1NS(=O)(=O)c1ccc(C)cc1 | 47% | -0.5% | 2 | -3%
CC(NCc1ccc(S(N)(=O)=O)cc1)C(=O)N1c2ccccc2CC1C (centres undefined) | 2% | 3.5% | 7 | 0%
Cc1ccnc(NS(=O)(=O)c2ccc(NC(=O)c3ccc(S(=O)(=O)N(C)C)cc3)cc2)n1 | ? | -2.0% | 3 | -2%
COc1ccc(Nc2nc(N3CCCC3)c3ccccc3n2)cc1 | 5% | 0.7% | -7 | 29%
CN(CC(=O)NCc1ccco1)S(=O)(=O)c1ccc2c(c1)n(C)c(=O)c(=O)n2C | -11% | -1.4% | -13 | -7%
COc1cccc(NC(=O)C(=O)NCC(c2ccco2)N2CCc3ccccc3C2)c1 (centres undefined) | 1% | -0.1% | / | /
CCN1CCC(N2CCN(c3ccc(Cl)cc3)CC2)CC1 | -16% | ? | / | -6%
O=C(CSc1ccc(Cl)cc1)NN=C1CCCCCC1 | -14% | -0.8% | 7 | -5%
CCC(CC)CN1CCN=C1N(C)C | -4% | 0.6% | / | -2%
CC[C@@H](C)[C@H](NS(=O)(=O)c1ccc(C)cc1)C(=O)N1CCC(C(=O)NCC(=O)O)CC1 | -3% | 3.5% | 7 | -3%
COc1ccccc1NC(=O)CSCc1nc2ccccc2[nH]1 | -5% | -1.1% | -5 | -9%
CCC(NC(=O)N(Cc1ccccc1)Cc1ccc2c(c1)OCO2)(C(F)(F)F)C(F)(F)F | -12% | 1.3% | -6 | -11%
CC(=O)c1cccc(NC(=O)CCC(=O)Oc2ccc(C)cc2)c1 | -14% | -0.9% | / | 2%
COCCn1c(C)cc(C(=O)COC(=O)c2cc3c(s2)CCC3)c1C | -9% | ? | -3 | -35%
Cc1ccc(C(=O)Nc2cccc(-c3ccc(N4CCOCC4)nn3)c2)cc1[N+](=O)[O-] | -12% | 0.6% | / | /
O=C(CN(CC1CCCO1)C(=O)CCC(=O)Nc1nccs1)NCc1ccccc1 (centres undefined) | 14% | 2.4% | -3 | -17%
CCOc1ccc(NC(=O)[C@@H]2CCC(=O)N2C2OC(=O)c3ccccc32)cc1 (some centres undefined) | 11% | -0.3% | / | 1%

5 neighbouring entries from above, quoted:
SMILES | Rango dissoc inh | Rango complex inh | GLA inh pH 4.5 | miR-21 FLuc
CC[C@@H](C)[C@H](NS(=O)(=O)c1ccc(C)cc1)C(=O)N1CCC(C(=O)NCC(=O)O)CC1 | -3% | 3.5% | 7 | -3%
COc1ccccc1NC(=O)CSCc1nc2ccccc2[nH]1 | -5% | -1.1% | -5 | -9%
CCC(NC(=O)N(Cc1ccccc1)Cc1ccc2c(c1)OCO2)(C(F)(F)F)C(F)(F)F | -12% | 1.3% | -6 | -11%
CC(=O)c1cccc(NC(=O)CCC(=O)Oc2ccc(C)cc2)c1 | -14% | -0.9% | / | 2%
COCCn1c(C)cc(C(=O)COC(=O)c2cc3c(s2)CCC3)c1C | -9% | ? | -3 | -35%

Following part
SMILES | Rango dissoc inh | Rango complex inh | GLA inh pH 4.5 | miR-21 FLuc
CCC(=O)NC(c1ccc(OC)cc1)c1c(O)ccc2ccccc12 (centres undefined) | 5% | -3.2% | 2 | 22%
COc1ccccc1CNc1nc2nc3c(c(=O)n2[nH]1)CCC3 | -3% | -0.3% | 7 | -3%
O=C(/C=C/c1ccco1)NC(=S)Nc1cc(-c2nc3ccccc3s2)ccc1Cl | 0% | -4.9% | -27 | -41%
CC(C(=O)O)C(=O)O | ? | -4.4% | / | /
CCOc1cc(/C=N/NC(=O)c2ccc(O)cc2)ccc1Oc1nc(Cl)ncc1F | -5% | -4.1% | 5 | 5%
CC1Cc2ccccc2N1C(=O)c1cnc2ccccn2c1=O (centres undefined) | 10% | -3.0% | -5 | -6%
O=C(NNc1ncnc2c1cnn2-c1cccc(Cl)c1)c1ccco1 | 5% | 2.7% | / | 2%
O=C(CCc1ccccc1)NC(=S)Nc1ccccc1Br | -8% | -0.9% | 3 | -23%
CNC(=S)N/N=C(\C)c1ccc(C(C)(C)C)cc1 | 0% | -4.5% | -6 | -31%
CN(c1ccc(C(=O)COC(=O)C2CC2)cc1)S(C)(=O)=O | -11% | 1.0% | / | /
CCSc1cc(C)nc2ncnn12 | -1% | 3.2% | -7 | -7%
CC(C)[C@H](N)c1nnc2n1N=C(c1ccc(Cl)cc1)CS2 | 7% | -0.4% | / | -5%
COc1ccc(OC)c(S(=O)(=O)Nc2ccc(C)c(C)c2)c1 | -9% | -0.2% | -1 | -7%
Nn1c(=O)c2ccccc2n2c(SCc3ccc(C(F)(F)F)cc3)nnc12 | -1% | 2.7% | -13 | -3%
CCN1CCN(CC(=O)Nc2cccc(C)c2)C(=O)C1=O | ? | -1.6% | / | /
CC(=O)Nc1ccc(N2C(=O)c3ccc(S(=O)(=O)c4ccc(C(=O)O)cc4)cc3C2=O)cc1 | -12% | 2.9% | / | 0%
CC1=NOC(=O)/C1=C\c1ccc(-c2cccc(Cl)c2)o1 | ? | ? | 2 | 8%
COc1ccc(-c2nc(CN3CCC(C(=O)N4CCOCC4)CC3)c(C)o2)c(OC)c1 | -18% | -0.4% | / | -1%
CC1CCCCC1NC(=S)NC(=O)c1ccccc1Cl (centres undefined) | -12% | 0.6% | / | /
CCCNC(=O)c1ccc(N2CCC3(CC2)CC(c2cccc(Br)c2)=NO3)c(NC(=O)c2cccc(OC)c2)c1 | 0% | 5.7% | / | /
CCN(CC)c1ccc(/C=N/N2CCN(Cc3ccccc3)CC2)cc1 | 0% | -2.3% | -1 | 0%
O=C(COc1ccccc1)N1CCN(C(=O)c2cccs2)CC1 | 6% | 1.1% | 9 | -5%
CC1CCN(c2ccccc2NC(=O)c2ccc(N3CCOCC3)c([N+](=O)[O-])c2)CC1 | 20% | -0.2% | -2 | -2%
COc1ccccc1NS(=O)(=O)c1cccc(C(=O)NCC(c2ccco2)N2CCCCC2)c1 (centres undefined) | 0% | 9.8% | / | /
CCn1c(COC(=O)CNC(=O)c2ccccc2F)nc2cc(S(=O)(=O)N(C)C)ccc21 | 23% | -0.8% | / | /
CCOc1ccccc1C(=O)Nc1cccc(-c2ccc(N3CCOCC3)nn2)c1 | 22% | 0.4% | / | /
Cc1cccc(OCc2nnc(SCC(=O)N3c4ccccc4CCc4ccccc43)o2)c1 | 14% | -2.2% | -1 | 22%
CC(C(N)=O)N1c2cccc3cccc(c23)S1(=O)=O (centres undefined) | 15% | ? | 5 | 0%
O=C(NCc1ccco1)c1cccc2c1C(=O)c1ccc(N3CCCC3)cc1S2(=O)=O | ? | ? | / | /
CCCN1CCc2c(sc(NC(=S)NC(=O)c3ccccc3)c2C#N)C1 | ? | ? | -8 | -49%

Record cards, from the list above. Order of screens: Rango dissoc inh, Rango complex inh, GLA inh pH 4.5, miR-21 FLuc
CC1CCN(c2ccccc2NC(=O)c2ccc(N3CCOCC3)c([N+](=O)[O-])c2)CC1 reads 20%, -0.2%, -2, -2%
CCn1c(COC(=O)CNC(=O)c2ccccc2F)nc2cc(S(=O)(=O)N(C)C)ccc21 reads 23%, -0.8%, /, /
CCCN1CCc2c(sc(NC(=S)NC(=O)c3ccccc3)c2C#N)C1 reads ?, ?, -8, -49%
O=C(NCc1ccco1)c1cccc2c1C(=O)c1ccc(N3CCCC3)cc1S2(=O)=O reads ?, ?, /, /
CCOc1ccccc1C(=O)Nc1cccc(-c2ccc(N3CCOCC3)nn2)c1 reads 22%, 0.4%, /, /

Going on with the list.
SMILES | Rango dissoc inh | Rango complex inh | GLA inh pH 4.5 | miR-21 FLuc
CC(C)N(Cc1ccccc1)C(=O)COC(=O)c1cnccn1 | -2% | -1.1% | 6 | 6%
COc1ccc(S(=O)(=O)NCCSCc2ccco2)cc1Cl | 1% | 0.5% | 8 | -9%
O=C(CN1C(=O)COc2ccccc21)NCCCN1CCN(c2ccccc2F)CC1 | 1% | -2.6% | / | -2%
CCCc1ccc(C(=O)CCC(=O)NNC(=O)c2ccncc2)cc1 | -17% | -8.0% | / | -8%
C(=N\c1ncnc2sccc12)/NOCc1ccccc1 | 21% | -3.9% | -7 | 14%
CN(C)c1ccc(/C=N\NC(=O)CC#N)cc1 | -10% | -2.3% | -3 | 0%
CSc1nnc2c(n1)OC(c1ccccn1)N(C(C)=O)c1ccccc1-2 (centres undefined) | 24% | -0.8% | -4 | 3%
Cc1n[nH]c(=S)c2nn(-c3ccccc3F)c(C)c12 | -8% | -0.7% | 0 | -3%
C=CCN(CC=C)S(=O)(=O)c1ccc(NC(=S)NC(=O)C2CC2)cc1 | -4% | 0.2% | / | 15%
Cc1ccc(SCC(=O)Nc2nnc(-c3ccco3)o2)cc1 | -14% | -0.4% | / | /
COc1ccccc1N1CCN(CC(=O)Nc2ccc(-n3cnnn3)cc2)CC1 | -7% | -1.8% | -15 | -1%
CCCNC(=O)c1onc(CSc2ccc(Cl)cc2)c1C(=O)NCC1CC1 | 5% | 0.1% | / | /
CC(=O)Nc1ccc(N2C(=O)c3cccc4c(O)ccc(c34)C2=O)cc1 | ? | ? | / | -2%
CCN1CCN(Cc2ccc(NC(=O)c3ccc(C)c(NC(=O)c4ccc5n[nH]nc5c4)c3)cc2C(F)(F)F)CC1 | 31% | 2.1% | -8 | 4%
COc1ccccc1CNC(=O)CN1C(=O)c2ccc([N+](=O)[O-])cc2C1=O | 1% | 0.4% | / | 0%
CCOc1ccc(S(=O)(=O)n2cc(F)c(=O)[nH]c2=O)cc1 | 10% | 2.1% | 4 | -6%
CCOc1cc(C(=O)NC(C)c2ccncc2)cc(OCC)c1OCC (centres undefined) | 5% | 4.6% | -12 | -6%
CCOc1c2ccc(C(=O)NC3CCCc4ccccc43)cc2nn1CC (centres undefined) | -21% | -6.1% | 7 | -1%
O=[N+]([O-])c1ccc(N2CCc3ccccc3C2)cc1 | 15% | -0.3% | / | -34%
CCOc1cc(C(=O)OCc2cccc(OC)c2OC)ccc1OCC(=O)N1CCOCC1 | -19% | 2.4% | / | /
COC(=O)c1sccc1NC(=O)c1ccc(OC)cc1 | 1% | -1.0% | 9 | -3%
CCOCCCNC(=O)Cn1cc2c(n1)CCCCC2 | -1% | 3.8% | 2 | -4%
COc1cc(/C=N\NC(=O)c2ccccc2F)ccc1Oc1ccc([N+](=O)[O-])cn1 | 10% | -3.3% | -4 | 15%
CCn1c(CCNS(=O)(=O)c2ccccc2Br)nnc1SC | 27% | -2.1% | / | 6%
Cc1ccc(S(=O)(=O)N(C)C)cc1NC(=O)COc1cccc(-n2cnnn2)c1 | 7% | 2.3% | / | /
